VDR inhibitor: Inhibitors of the vitamin D receptor (VDR): qHTS; Vitamin D3 receptor (Homo sapiens), P11473; VDR-SRC2-3 peptide fluorescence polarization, 2 h; Potency, µM, for inactives: max response, negative = inhibition, usual class: inhibitors; 400,000 compounds, 0.93% hits; AID 504847, 2011; active = well fitted inhibition curve with a large enough effect; inconclusive = small, poorly fitted or top-dose-only effect, or another doubt; inactive = no such curve, though single readings can be large or run the other way; note: series mostly up to about 120 µM
Target sequence (P11473 whole entry, looked up): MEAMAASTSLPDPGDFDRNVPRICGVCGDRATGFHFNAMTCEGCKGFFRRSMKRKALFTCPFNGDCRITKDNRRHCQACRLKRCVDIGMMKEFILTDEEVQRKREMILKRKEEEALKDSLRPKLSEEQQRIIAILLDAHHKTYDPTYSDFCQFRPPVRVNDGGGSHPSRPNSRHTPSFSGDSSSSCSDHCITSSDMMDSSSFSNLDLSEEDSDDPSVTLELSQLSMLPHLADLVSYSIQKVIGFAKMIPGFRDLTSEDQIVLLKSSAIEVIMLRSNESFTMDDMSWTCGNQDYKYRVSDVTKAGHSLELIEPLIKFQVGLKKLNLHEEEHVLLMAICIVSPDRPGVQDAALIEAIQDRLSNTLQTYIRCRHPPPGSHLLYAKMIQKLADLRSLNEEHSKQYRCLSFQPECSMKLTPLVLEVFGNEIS
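After 23 nl compound addition and a short centrifugation, plates sat for 2 hours at ambient temperature; polarization of fluorescence then indicated loss of VDR binding to peptide SRC2-3.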
An asterisk follows results filed as active; ? = inconclusive; & = joins results of further samples. % is set by controls: 0 for no effect and ±100 for the full control effect; potency is the fitted concentration of half-maximal effect. Not all compounds are listed; the hit share may differ from the screen's.

SMILES | VDR inhibitor
CC(C)N(Cc1ccccc1)C(=O)CN1C(=O)NC2(CCOc3ccccc32)C1=O (stereo not given) | 11%
COc1ccc(Cl)cc1NC(=O)Cn1nc(-c2ccc(C)cc2)n(C)c1=S | ?
O=C(Nc1ccc(Cl)cc1C(=O)NCc1cccnc1)c1ccco1 | -7%
O=C(c1cnccn1)N1CCc2ccccc21 | -4%
CC(C)C[C@H](NC(=O)N1CCn2c1nc1ccccc12)C(=O)NCc1ccccc1 | 2%
O=[N+]([O-])c1ccc(Cc2nnc(-c3ccccc3Cl)o2)cc1 | -15%
O=C(NCCSCc1c(F)cccc1Cl)c1ccco1 | -16%
COc1ccc(NC(=O)CSC2=Nc3ccccc3N=C(c3ccc(F)cc3)C2)cc1OC | 3%
CCOC(=O)CC1(NC(=O)c2cc(COc3ccc(F)c(F)c3)on2)CCCCC1 | -15%
CC(NC(=O)CCNC(=O)c1ccccc1Cl)C1CC2CCC1C2 (stereo not given) | -15%
CCN1C(=O)/C(=C2/C=Cc3cc(C)ccc3N2CC)N(C)C1=S | 1%
CC1CN(S(=O)(=O)c2ccc(C(=O)Nc3nncs3)cc2)CC(C)O1 (stereo not given) | 0%
NCCCN(Cc1ccccc1)c1ccc(Br)cn1 | 3%
COc1ccc(NC(=O)Oc2cc(C)ccc2C(C)C)cc1 | -2%
COc1ccc2cc3cc(C(=O)N4CCCCC4C)oc3nc2c1 (stereo not given) | -13%
Cc1cccc2cc(COC(=O)c3ccccn3)c(=O)[nH]c12 | -5%
O=[N+]([O-])c1ccc2[nH]c3nc4ccccc4nc3c2c1 | -2%
O=C(CSc1nnc(-c2cnccn2)n1Cc1ccco1)c1ccc(Cl)c(Cl)c1 | -29%
O=C(CSc1nncs1)Nc1ccc2c(c1)OCCO2 | 4%
COC(=O)C1CCCN1C(=O)COc1ccc(Cl)cc1Br (stereo not given) | -11%
O=C(Nc1ccccc1)NC1CCCCC1 | 8%
CN1CCN(C(CNS(=O)(=O)c2ccc(F)cc2)c2cccnc2)CC1 (stereo not given) | 12%
O=C(Cn1[nH]c(=O)c2ccccc2c1=O)NC1CCCCCC1 | 9%
Cc1ccc(S(=O)(=O)N(C)CC(=O)OCC(=O)NC(=O)NC(C)C)cc1 | 13%
CC(C)CN(C(=O)COc1ccc(Br)cc1C=O)C1CCS(=O)(=O)C1 (stereo not given) | -11%
Cn1c(=O)c(=O)n(C)c2cc(S(=O)(=O)N3CCCCC3)ccc21 | -13%
O=C(COc1ccc(NC(=O)c2cccs2)cc1)c1ccc(F)cc1 | -2%
COc1cc(-c2csc(N3CCOCC3)n2)cc(OC)c1OC | -4%
CCOc1nc(-c2ccncc2)nc2ccccc12 | 10%
COCCNC(=O)CSc1ccccc1C(=O)NC1CCCc2ccccc21 (stereo not given) | 4%
O=C(NCc1cccs1)C1CC(=O)N(c2ccc(Cl)cc2)C1 (stereo not given) | 4%
COc1ccc(/C=C(\C)c2nc(C)c(-c3ccccc3)c(=O)[nH]2)cc1 | -13%
CCSc1ccccc1C(=O)N=C1NC(=O)CC2C(=O)NCCN12 (stereo not given) | -9%
CCN(C(=O)COC(=O)/C=C/c1ccc2c(c1)OCO2)c1c(N)n(Cc2ccccc2)c(=O)[nH]c1=O | -4%
CC1CCc2c(sc(NC(=S)NC(=O)c3ccccc3)c2C#N)C1 (stereo not given) | -6%
Cc1ccc(N(C)S(=O)(=O)c2ccc(-c3cnc(C4CC4)o3)cc2)cc1 | 11%&1%
CCC(=O)Nc1cc(NC(=O)CSc2nnc(C(C)C)n2CC)ccc1C | 8%
Cc1cc(Cl)ccc1NC(=O)Cn1cncn1 | 5%
CCc1ccc(C(=O)Cn2ncc(Cl)c(Cl)c2=O)cc1 | 25%
Cc1ccccc1CNC(=O)CCCn1c(=O)c2cccn2c2cccnc21 | 6%
CN(NC(=S)Nc1ccc(OC(F)F)cc1)C(=S)Nc1ccc(OC(F)F)cc1 | 5%
O=c1cnn([C@@H]2O[C@H](CO)[C@@H](O)[C@H]2O)c(=O)[nH]1 | -15%
O=C(NCCCn1ccnc1)C(=O)NCC1OCCCN1S(=O)(=O)c1ccc(Cl)cc1 (stereo not given) | 5%
c1ccc(CN2CCC(N3CCN(Cc4ccc5c(c4)OCO5)CC3)CC2)cc1 | -7%
Cc1ccc(SCC(=O)N(Cc2nc(-c3ccccc3)no2)C(C)C)cc1 | -7%
O=c1cc(N2CCN(c3ccc(F)cc3)CC2)[nH]c(=O)n1Cc1ccc(F)cc1 | 10%
CC(=O)c1ccc(NC(=O)C2(S(=O)(=O)c3ccccc3)CC2)cc1 | 1%
CCOC(=O)CCc1c(C)n(CC)c2ncnn2c1=O | 5%
COc1ccc(NC(=O)N2CC[C@@]3(CCCN(C(=O)c4cccc(F)c4)C3)C2)cc1 | 3%
C=CCN1C(=O)NC2(O)C(=O)c3ccccc3C12O (stereo not given) | -6%
COc1ccc(CCNC(=O)CCC(=O)Nc2ccccc2[N+](=O)[O-])cc1OC | -9%
Cc1cc(NC(=S)NC(=O)c2ccco2)c2ccccc2n1 | -24%
O=C(Nc1ccccc1)Nc1nnc(CSCc2ccccc2Cl)s1 | -17%
CCOc1ccc(NC(=O)CSCC(=O)O)cc1 | -10%
CCOc1ncccc1C(=O)NCCCSc1ccccc1 | -8%
O=C(CNC(=O)c1ccccc1)Sc1ccccc1 | 45µM*
COc1ccc(S(=O)(=O)N2CCN(Cc3ccc(Cl)cc3)CC2)cc1 | 10%
CC1CCc2sc3c(c2C1)c1ncnn1c(=O)n3CC(=O)c1ccc(Br)cc1 (stereo not given) | -10%
COc1cccc(N2CCN(c3ccc(N4C(=O)CCC4=O)cc3[N+](=O)[O-])CC2)c1 | 0%
O=C(Nc1ccc(F)cc1F)c1sccc1SCc1cccc(C(F)(F)F)c1 | -9%

Carrying on:
SMILES | VDR inhibitor
C=CCn1c(SCc2ccc(F)cc2)nc2c1c(=O)[nH]c(=O)n2C | -24%
CN(Cc1ccccc1)C(=O)c1ccc(NC(=O)Cc2ccc(NC(=O)C3CCN(C(=O)C4CCC4)CC3)cc2)cc1 | 8%
OCCNCCNCc1ccccc1OCc1ccccc1 | -20%
CN(Cc1ccccc1)C(=O)c1nc2ccccn2c1CNCCOc1cccnc1 | -14%
Cc1cc(C(=O)Nc2ccc(F)c(Cl)c2)on1 | 9%
CC(NC(=O)NC1CCCCC1)C(c1cccs1)N1CCOCC1 (stereo not given) | 15%
COc1ccc(C(=O)Nc2ccc(NC(=O)c3cccs3)cc2)cc1[N+](=O)[O-] | 3%
COc1ccc(/C=N/NC(=O)c2ccc3c(c2)NC(=O)C(C)(C)O3)cc1OC | 9%
CCS(=O)(=O)c1nc(S(=O)(=O)c2ccc(C)cc2)c(NCc2ccccn2)s1 | 9%
O=C1CC(c2cccnc2)c2cc3c(cc2N1)OCCO3 (stereo not given) | -12%
COc1ccccc1NC(=O)CCSc1nnc(-c2ccncc2)o1 | -6%
CC1(C)CN=C(NC2CCCCC2)S1 | -13%
O=C(CSC1=NS(=O)(=O)c2ccccc2N1)Nc1ccc(F)cc1 | 11%
COC(=O)c1cccc(C(=O)Nc2cnc3ccccc3c2)n1 | -1%
CONc1nc2nonc2nc1NOC | -15%
Cc1ccsc1CN(C)CC(=O)Nc1ccc([N+](=O)[O-])cc1Cl | 4%
CC1C(=O)N(c2ccc(S(=O)(=O)N(C)C)cc2)C1(/C=C/c1ccccc1)C(=O)NC1CCCC1 (stereo not given) | -22%
O=C(OCC(=O)N1CCN(Cc2ccccc2)CC1)c1ccc(Cl)cc1 | 3%
CN(C(=O)c1ccncc1)c1nnc(-c2cnccn2)s1 | 21%
Cc1c(NC(=O)Nc2cccc(C#N)c2)c(=O)n(-c2ccccc2)n1C | -2%
CC(=O)NCCNC(=O)CNC(=O)c1ccc(Cl)cc1 | -2%
COc1ccccc1CN1CCN(C(c2ccccc2)c2ccccc2)CC1 | 10%
Cc1nnc(NC(=O)C(C)Sc2nnc(-c3ccco3)n2C)s1 (stereo not given) | 2%
O=C(COC(=O)c1c2c(nc3ccccc13)CCCCC2)c1ccc(Cl)s1 | 10%
Cc1cccc(C)c1NC(=O)C1CCCNC1 (stereo not given) | 9%
Cc1cccc(C(C#N)c2ccc(Cl)nn2)c1 (stereo not given) | 20%
CC(C)OCCCn1c(=O)c2ccccc2n2c(CCC(=O)NC3CCN(Cc4ccccc4)CC3)nnc12 | 16%
Cc1cc(C)n2nc(SCC(=O)N3CC(C)CC(C)C3)nc2n1 (stereo not given) | 2%
CC(C)=NNc1nc(-c2ccccc2)c(C)s1 | -16%
CCC(C)NC(=O)CSc1ncnc2sccc12 (stereo not given) | 10%
COc1ccc(OC)c(CNC(=O)C2CCC(=O)N2C(C)C)c1 (stereo not given) | 7%
Cc1ccc(S(=O)(=O)c2nnn3c2nc(N2CCOCC2)c2ccccc23)c(C)c1 | 1%
CCN(CC)CCC=C(c1cccs1)c1cccs1 | -23%
Cc1ccc(C(=O)Nc2nnc(S(=O)(=O)Nc3ccccc3C)s2)cc1C | -20%
CC[C@]1(C(=O)OC)[C@H]2C(=O)N(C)C(=O)[C@H]2[C@H]2CN=C(SCc3ccc(OC)cc3)N21 | -9%
CC(=O)c1sc(NC(=O)c2cccs2)nc1C | ?
CCN(CC)S(=O)(=O)c1ccc(N2CCCCC2)c(NC(=O)/C(C#N)=C/c2ccc(OC)cc2)c1 | -18%
COC(=O)c1sccc1S(=O)(=O)N(CC(=O)NCc1ccc(C)cc1)c1ccc(C)cc1 | 16%
CCOc1ccc(Nc2nc(Cc3nnc(SCC(=O)NC4CCCC4)n3C)cs2)cc1 | 2%
COc1ccc(OCC(=O)Nc2ccc(Cl)c(-c3nc4ncccc4o3)c2)cc1 | -8%
Cc1ccc(-c2nc3ccccc3c(=O)n2Cc2ccccc2)cc1 | -16%
COc1ccc(OC)c(NC(=O)Cn2c(=O)cc(-c3ccccc3)c3c(C)nn(C)c32)c1 | 13%
CCn1c(-c2cc(-c3ccccc3)sc2N)n[nH]c1=S | ?
CC(=O)Oc1ccc(C2C3=C(CC(C)(C)CC3=O)Nc3cc4c(cc32)OCCO4)cc1 (stereo not given) | 2%
COc1ccc(N(C(=O)c2ccco2)C(C(=O)NC2CCCC2)c2cccs2)cc1OC (stereo not given) | 7%
COc1nc2ccccc2nc1N1CCN(c2ccc(F)cc2)CC1 | 8%
COc1cccc(Oc2ccc(C(F)(F)F)cc2NC(=O)CCc2nc3ccccc3c(=O)[nH]2)c1 | 16%
Cc1ccc(NC(=O)c2ccc(S(=O)(=O)C(F)F)cc2)c(C)c1 | -7%

Looked up above.
Value of COc1nc2ccccc2nc1N1CCN(c2ccc(F)cc2)CC1 in VDR inhibitor: 8%
Value of Cc1ccc(-c2nc3ccccc3c(=O)n2Cc2ccccc2)cc1 in VDR inhibitor: -16%
Value of COc1ccc(N(C(=O)c2ccco2)C(C(=O)NC2CCCC2)c2cccs2)cc1OC (stereo not given) in VDR inhibitor: 7%

Further structures follow.
SMILES | VDR inhibitor
O=S(=O)(c1ccc(-c2nnco2)cc1)N1CCCCC1 | 6%
C=C1[C@@H](O)[C@H](CC(C)C)N(Cc2ccccc2Br)S1(=O)=O | -11%
Cc1cccc(NC(=O)c2ccccc2NC(=O)C2CCCCC2)c1C | 1%
COc1ccc(C=O)cc1OS(=O)(=O)c1ccccc1[N+](=O)[O-] | -2%
COc1cc(C(=O)N/C(=C\c2cn(C)c3ccccc23)C(=O)N2CCN(C)CC2)cc(OC)c1OC | -1%
CN(Cc1ccccc1)C(=O)CCS(=O)(=O)c1cc2c(cc1Cl)NC(=O)CO2 | -1%
Cc1ccc(-c2csc(N3CCN(CCCn4c(C(F)(F)F)nc5ccccc54)CC3)n2)cc1 | -19%
CCN(CC)CCCNC(=O)c1cnc(SC)nc1-c1ccccc1 | 7%
COCCNC(=O)C(c1ccc(C)cc1)N(Cc1cccs1)C(=O)CCC(=O)Nc1ccccn1 (stereo not given) | -23%
COc1cc2cc(C#N)c(SCC(=O)Nc3cc(C)on3)nc2cc1OC | 18%
CCn1c(Cc2ccc(OC)cc2)nnc1SCC(=O)Nc1cccc(C(=O)OC)c1 | -2%
O=[N+]([O-])c1ccc(COc2ccc(CNc3ccccc3)cc2)cc1 | -6%

Reformatted with values ahead of the structure: entries from further up.
VDR inhibitor	Compound
-19%	Cc1ccc(-c2csc(N3CCN(CCCn4c(C(F)(F)F)nc5ccccc54)CC3)n2)cc1
7%	CCN(CC)CCCNC(=O)c1cnc(SC)nc1-c1ccccc1
-23%	COCCNC(=O)C(c1ccc(C)cc1)N(Cc1cccs1)C(=O)CCC(=O)Nc1ccccn1 (stereo not given)
18%	COc1cc2cc(C#N)c(SCC(=O)Nc3cc(C)on3)nc2cc1OC

Continuation.
SMILES | VDR inhibitor
CCOCCCn1c(SCC(=O)Nc2ccc(C)cc2)nc2ccccc2c1=O | 9%
CCOC(=O)c1c(C)c(-c2ccccc2)n(CC(=O)NCc2ccccc2)c1C | -1%
COc1ccc2nc(NC(=O)CSC(C)C(=O)Nc3cc(C)on3)sc2c1 (stereo not given) | -3%
CCOC(=O)C1CCN(c2c(Nc3ccc4c(c3)OCCO4)c(=O)c2=O)CC1 | -3%
Cc1cccc(/C=C(\c2nc3ccccc3[nH]2)S(=O)(=O)c2ccccc2)c1 | ?
O=C(Nc1cccnc1)C1CCCN(c2ncnc3c2nc2n3CCCCC2)C1 (stereo not given) | 15%
OCCC1CN(Cc2cnc(-c3ccccc3)s2)CCN1CCc1ccccc1 (stereo not given) | -9%
Cc1cccc(NC(=O)CN2CCC(NC(=O)C3CCCCC3)CC2)c1C | 0%
O=C(NS(=O)(=O)c1ccc2c(c1)OCCO2)c1ccccc1 | -20%
Cc1ccc(C)c(CSc2nnc(-c3cccs3)n2Cc2ccco2)c1 | -10%

Assay outcomes as filed in PubChem.
